VDR inhibitor – Inhibitors of the vitamin D receptor (VDR): qHTS. Vitamin D3 receptor (Homo sapiens), P11473. VDR-SRC2-3 peptide fluorescence polarization, 2 h. Potency, µM, for inactives: max response, negative = inhibition, actives largely listed as inhibitors. actives 0.93% (n = 400,000). AID 504847, 2011; active = well fitted inhibition curve with a large enough effect; inconclusive = small, poorly fitted or top-dose-only effect, or another doubt; inactive = no such curve, though single readings can be large or run the other way; note: series mostly up to about 120 µM
Target sequence (P11473 whole entry, looked up): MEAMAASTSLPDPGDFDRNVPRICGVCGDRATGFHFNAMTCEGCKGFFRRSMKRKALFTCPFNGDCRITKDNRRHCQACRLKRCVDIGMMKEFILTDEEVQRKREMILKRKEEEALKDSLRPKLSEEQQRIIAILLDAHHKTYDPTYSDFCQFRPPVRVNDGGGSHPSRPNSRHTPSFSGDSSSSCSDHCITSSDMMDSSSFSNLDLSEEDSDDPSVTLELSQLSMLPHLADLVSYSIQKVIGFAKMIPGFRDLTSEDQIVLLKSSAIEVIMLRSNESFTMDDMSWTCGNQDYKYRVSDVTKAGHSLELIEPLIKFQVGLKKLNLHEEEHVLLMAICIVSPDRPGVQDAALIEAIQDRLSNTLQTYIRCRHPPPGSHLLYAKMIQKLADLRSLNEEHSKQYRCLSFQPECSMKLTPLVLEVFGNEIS
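Signal is fluorescence polarization, reporting how far test compounds block the interaction of VDR with the SRC2-3 coregulator peptide after a 2 h room-temperature incubation.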
An asterisk follows results filed as active; [ ] = dose if it differs, or a comment. % is set by controls: 0 for no effect and ±100 for the full control effect; potency is the fitted concentration of half-maximal effect. Not all compounds are listed; count on the stated rates, not on these rows.

CN(CC(=O)NCc1ccc(F)cc1)S(=O)(=O)c1ccc(Br)s1 was read as VDR inhibitor 10.6%.
`NC(=O)C1CCN(C(=O)c2ccc3ccccc3c2)CC1` gave VDR inhibitor 23.0%.
CCOC(=O)c1oc2c(c1C)-c1nn(Cc3c(F)cccc3Cl)cc1CC2 was read as VDR inhibitor 2.6%.
Screening O=C1CCC(=O)N1c1nc2n(n1)C(c1ccccc1)C=C(c1ccc(Br)cc1)N2 (configuration not stated) returned VDR inhibitor 1.1%.
For CCOC(=O)c1ccccc1NS(=O)(=O)c1ccccc1 the results were VDR inhibitor 23.0%.
Screening Cc1ccc(S(=O)(=O)N2CCCCC2)cc1C(=O)N(C)CC(=O)Nc1ccc(Cl)c(C(F)(F)F)c1 returned VDR inhibitor -6.9%.
For N/C(=N\OC(=O)/C=C/c1ccccc1)c1ccc(Br)cc1 the results were VDR inhibitor 11.6%.
Screening COc1cccc(-n2c(SCC(=O)N3CCCc4ccccc43)nc3c([nH]c4ccccc43)c2=O)c1 returned VDR inhibitor -6.5%.
For O=c1c2c(C(F)(F)F)cc(C(F)(F)F)nc2[nH]n1-c1ccccc1 the results were VDR inhibitor -4.4%.
For Cc1ccc(C(=O)CCC(=O)NN2C(=O)NC3(CCCCC3)C2=O)cc1 the results were VDR inhibitor 10.3%.
COc1cc(OC)cc(-c2nnc(N(C)C(=O)c3ccncc3)s2)c1 was read as VDR inhibitor -6.0%.
For COc1cc(/C=N/NC(=O)c2cc(C3CC3)[nH]n2)cc(OC)c1OC the results were VDR inhibitor -15.8%.
`CCCNC(=O)C(Cc1ccc(Cl)cc1)NC(=O)c1ccc(C#N)cc1` (configuration not stated) gave VDR inhibitor 16.4%.
For COc1ccc(/C=N\NC(=O)c2ccccc2F)cc1COc1ccc(F)cc1F the results were VDR inhibitor -4.3%.
CC1(c2nnc(-c3ccccc3)o2)CC(c2ccccc2)=NO1 (configuration not stated) was read as VDR inhibitor 11.2%.
Screening CCS(=O)(=O)c1ccc2oc(SCC(=O)N3c4ccccc4CC3C)nc2c1 (configuration not stated) returned VDR inhibitor 22.6%.
For Cc1cccc(C)c1NC(=S)N1CCCN(C)CC1 the results were VDR inhibitor -5.9%.
CC(=O)N1c2ccc(S(=O)(=O)N3CCCC(C(=O)NCc4ccccc4)C3)cc2CC1C (configuration not stated) was read as VDR inhibitor -4.5%.
`CCN1CCN(C(=O)C2CCN(Cc3cc(Cl)ccc3O)CC2)CC1` gave VDR inhibitor -0.6%.
Screening Cc1ccc(NC2=NC(c3ccc(C)cc3)n3c(nc(C)cc3=O)N2)cc1 (configuration not stated) returned VDR inhibitor 5.9%.
`CCNC(=S)N1CCN(c2ncccn2)CC1` gave VDR inhibitor -6.3%.
Screening Cc1ccc(NC(=O)COC(=O)CCc2c[nH]c(=O)[nH]2)cc1 returned VDR inhibitor 3.6%.
For CCCOc1ccc(NC(=O)CC2C(=O)N(c3ccc(OC)cc3)C(=O)N2CCc2ccncc2)cc1 (configuration not stated) the results were VDR inhibitor 5.9%.
`COc1ccc(CC(=O)NC(C)c2nnc(SCC(=O)Nc3cc(C)ccc3OC)n2C)cc1` (configuration not stated) gave VDR inhibitor -18.5%.
Screening O=C(NC1CCS(=O)(=O)C1)/C(=C/c1ccc(Cl)cc1)NC(=O)c1ccccc1 (configuration not stated) returned VDR inhibitor -17.6%.
Screening COc1ccc(CCNS(=O)(=O)c2ccc3c(c2)CC(C)N3C(C)=O)cc1OC (configuration not stated) returned VDR inhibitor 12.8%.
Screening CC1CCCCN1Cc1nc2ccccc2c(=O)[nH]1 (configuration not stated) returned VDR inhibitor 31.1%[activator].
Screening CCCn1c(=S)[nH]c2cc(C(=O)N3CCN(C4CCCCC4)CC3)ccc2c1=O returned VDR inhibitor 20.5%.
For CC(C)N(c1ccccc1)c1ccc(NC(=O)CCl)cc1 the results were VDR inhibitor inconclusive.
`COC(=O)CNc1nc(-c2ccncc2)nc2ccccc12` gave VDR inhibitor -7.1%.
CC(C)(C)NS(=O)(=O)c1cccc(S(=O)(=O)c2cccc(S(=O)(=O)NC(C)(C)C)c2)c1 was read as VDR inhibitor 3.0%.
Screening O=C(Nn1cnnc1)C1CCCN1S(=O)(=O)c1ccc(F)cc1 (configuration not stated) returned VDR inhibitor -16.3%.
`NS(=O)(=O)c1ccc(CCNC(=O)CCCCCn2c(=O)[nH]c3ccccc3c2=O)cc1` gave VDR inhibitor -0.1%.
`Cc1ccc(NC(=O)C2CC2C)cc1S(=O)(=O)N1CCOCC1` (configuration not stated) gave VDR inhibitor -19.1%.
For O=c1c2cc(Cl)ccc2nc(-c2ccccc2)n1O the results were VDR inhibitor 14.8%.
For O=C(NC1CCSc2ccccc21)c1cccc(OC(F)F)c1 (configuration not stated) the results were VDR inhibitor -1.5%.
O=C(O)c1ccc(Oc2cc(Oc3ccc(C(=O)O)cc3)cc([N+](=O)[O-])c2)cc1 was read as VDR inhibitor -22.9%.
Screening NC(=O)N/N=C/c1ccc(-c2ccc([N+](=O)[O-])cc2)o1 returned VDR inhibitor -1.9%.
`CCC(CC)C(=O)NCc1ccc2c(c1)cc(C)n2C` gave VDR inhibitor 7.9%.
For COC(=O)c1cn(-c2ccccc2)c(C)c1C(=O)OC the results were VDR inhibitor 6.7%.

Retrieved by compound from the entries so far, 4 records:
`CCNC(=S)N1CCN(c2ncccn2)CC1` gave VDR inhibitor -6.3%.
Screening CCCn1c(=S)[nH]c2cc(C(=O)N3CCN(C4CCCCC4)CC3)ccc2c1=O returned VDR inhibitor 20.5%.
O=C(O)c1ccc(Oc2cc(Oc3ccc(C(=O)O)cc3)cc([N+](=O)[O-])c2)cc1 was read as VDR inhibitor -22.9%.
`CCC(CC)C(=O)NCc1ccc2c(c1)cc(C)n2C` gave VDR inhibitor 7.9%.

3 structures from above, ordered by SMILES length, largest number first:
Screening O=C(Nn1cnnc1)C1CCCN1S(=O)(=O)c1ccc(F)cc1 (configuration not stated) returned VDR inhibitor -16.3%.
For COC(=O)c1cn(-c2ccccc2)c(C)c1C(=O)OC the results were VDR inhibitor 6.7%.
`COC(=O)CNc1nc(-c2ccncc2)nc2ccccc12` gave VDR inhibitor -7.1%.

New compounds follow
`N#CCCN(/N=C/c1cccnc1)C1=NS(=O)(=O)c2ccccc21` gave VDR inhibitor 5.6%.
For Cc1cccc(C(=O)NC2CCN(CC(=O)NCc3cccs3)CC2)c1 the results were VDR inhibitor -7.2%.
For CC(C)N(CC(N)=O)C(=O)Cc1coc2cc3c(cc12)CCC3 the results were VDR inhibitor -12.0%.
`O=C(Nc1ccccc1N1CCCCC1)c1ccc(Cl)cc1` gave VDR inhibitor -12.1%.
Screening CCCc1nn2c(=O)cc(COC(=O)c3cccc(NC(=O)c4cccs4)c3)nc2s1 returned VDR inhibitor 13.5%.
For CC(C)c1ccccc1NC(=S)NC1CCCCC1 the results were VDR inhibitor -7.7%.
For O=C(c1cc(-c2cccs2)on1)N1CCN(c2ccccc2)CC1 the results were VDR inhibitor -5.2%.
Screening CCOC(=O)c1c(C)oc2cc(Cl)c(O)c(CN(C)C)c12 returned VDR inhibitor 3.1%.
Screening Cc1cc(C(=O)Nc2sc3c(c2C#N)CCC(C(C)(C)C)C3)no1 (configuration not stated) returned VDR inhibitor 7.1%.
For CCCN(C(=O)Cc1nc(-c2ccc(OC)cc2)no1)c1ccccc1C the results were VDR inhibitor -0.1%.
CC[C@]1(C(=O)OC)[C@H]2C(=O)N(C)C(=O)[C@H]2[C@H]2CN=C(SCc3ccccc3)N21 was read as VDR inhibitor 18.0%.
`Cc1ccccc1N=C1NC(=O)CS1` gave VDR inhibitor 5.1%.
COc1ccccc1CCC(=O)Nc1ccc(S(=O)(=O)Nc2cc(C)nc(C)n2)cc1 was read as VDR inhibitor -15.1%.
COc1cc(CC(=O)OCC(=O)N2CCCCC2)cc(OC)c1OC was read as VDR inhibitor 2.1%.
Cc1ccccc1C(=O)c1cccn1CC(=O)NCC(C)c1ccccc1 (configuration not stated) was read as VDR inhibitor -4.8%.
Screening Cc1c(Cl)cnc(NC(=O)CSc2nnc(C)n2Cc2ccccc2)c1Cl returned VDR inhibitor -4.4%.
`COc1ccc(C(c2c(C)n(C)n(-c3ccccc3)c2=O)c2c(C)n(C)n(-c3ccccc3)c2=O)cc1O` gave VDR inhibitor -12.0%.
Screening Cc1cc(C)c2c(n1)nn1c(N3CCN(Cc4ccccc4)CC3)cc(C)nc21 returned VDR inhibitor 9.3%.
c1ccc(-n2nnnc2N2CCOCC2)cc1 was read as VDR inhibitor 8.3%.
`CCN(CC)c1ccc(-c2nn3c(-c4n[nH]c5c4CCC5)nnc3s2)cc1` gave VDR inhibitor 19.3%.
CCOc1ccccc1CNC(=O)c1ccc(NC(=O)N2CC(C)Sc3ccccc32)cc1 (configuration not stated) was read as VDR inhibitor 9.6%.
COc1ccccc1-c1cc(C(=O)Nc2sc3c(c2C#N)CCCC3)no1 was read as VDR inhibitor 79.4µM*.
COC(=O)Oc1ccc(/C=C/C(=O)OC(C)C)cc1OC(=O)OC was read as VDR inhibitor -8.7%.
For O=C(CCl)NN1C(=O)NC2(CCCCC2)C1=O the results were VDR inhibitor -17.9%.
O=C(O)CC1c2ccccc2CCN1S(=O)(=O)c1ccccc1 (configuration not stated) was read as VDR inhibitor 6.9%.
For CC1C(=O)Nc2ccc(S(=O)(=O)N3CCN(c4cccc(Cl)c4)CC3)cc2NC1=O (configuration not stated) the results were VDR inhibitor -21.4%.
For Cc1cc(C)cc(-n2ccnc2SCC(=O)Nc2ccc(C)cc2C)c1 the results were VDR inhibitor -6.8%.
CCC(=O)Nc1c(C)cc(C)cc1Cl was read as VDR inhibitor 2.8%.
Screening CC(C)CNC(=O)c1c(N)n(/N=C/c2ccccn2)c2nc3ccccc3nc12 returned VDR inhibitor 1.0%.
COc1ccccc1CNC(=O)CNC(=O)N1CC(=O)Nc2ccccc21 was read as VDR inhibitor 8.7%.
Screening CC(C)c1nn2c(=O)cc(O)nc2s1 returned VDR inhibitor inconclusive.
Screening CC(C)CN(C(=O)c1ccc(=O)n(C)n1)c1c(N)n(Cc2ccccc2)c(=O)[nH]c1=O returned VDR inhibitor -6.8%.
`CCCc1cc(=O)[nH]c(SCC(=O)c2cc(C)n(C)c2C)n1` gave VDR inhibitor -4.3%.
`CCOC(=O)/C=C/c1ccc(C(F)(F)F)cc1S(=O)(=O)NC(C)(C)C` gave VDR inhibitor 79.4µM*.
`CN(CC(=O)NC1CC1)S(=O)(=O)c1ccc(F)cc1` gave VDR inhibitor -21.1%.
CCOc1ccccc1N1CCN(C(=O)CCCc2nc3ccccc3s2)CC1 was read as VDR inhibitor -6.9%.
`CN(Cc1ccccc1)C(=O)c1ccc([N+](=O)[O-])o1` gave VDR inhibitor -8.3%.
For Cc1ccccc1C(=O)Nc1ccc(S(=O)(=O)N2CC(C)OC(C)C2)cc1 (configuration not stated) the results were VDR inhibitor 1.0%.
Screening CC(=O)Nc1ccc(S(=O)(=O)N2CCNC(=O)CC2)cc1 returned VDR inhibitor -9.7%.
Screening CC1CN(CCS(=O)(=O)c2cc(Cl)ccc2Cl)CC(C)O1 (configuration not stated) returned VDR inhibitor -0.2%.
NC(=O)Oc1cccc(OC(N)=O)c1 was read as VDR inhibitor -9.7%.
For CCCNC1=CC(=O)CC(C)(C)C1 the results were VDR inhibitor -0.2%.
`O=C1C=CC(=Nc2ccc(F)cc2)O1` gave VDR inhibitor 79.4µM*.
For CCCCCCn1c(CN2CCCC(C)C2)nc2c1c(=O)n(C)c(=O)n2C (configuration not stated) the results were VDR inhibitor -2.9%.
O=C1c2cnc3nc(SCc4ccc(Cl)cc4)nn3c2CC2c3ccccc3CCN12 (configuration not stated) was read as VDR inhibitor 3.1%.
Screening COc1ccc(C2C(C)C3(O)CC(C#N)(C(=O)N3)C2(C#N)C#N)cc1 (configuration not stated) returned VDR inhibitor -0.2%.
Screening CN(C)CCCN(C(=O)c1ccc(Cl)s1)c1nc2cc3c(cc2s1)OCO3 returned VDR inhibitor inconclusive.
CC(=O)N(c1ccc(Cl)cc1)c1c[nH]c2ccccc12 was read as VDR inhibitor 19.7%.
`CS(=O)(=O)Nc1ccccc1C(=O)Nc1cccc(Cl)c1` gave VDR inhibitor -3.2%.
Screening NC(=O)c1ccccc1NC(=O)CC12CC3CC(CC(C3)C1)C2 returned VDR inhibitor -4.8%.
`O=C1C(c2ccc(F)cc2)N(Cc2ccccc2Cl)C(=O)CN1C1CCCCC1` (configuration not stated) gave VDR inhibitor 10.7%.
`Cc1ccc(NC(=O)c2ccccc2OCc2c(C)noc2C)cc1S(=O)(=O)N(C)C` gave VDR inhibitor 2.1%.
C=CCn1c(SCC(=O)NC2CCS(=O)(=O)C2)nc2sc(CC)cc2c1=O (configuration not stated) was read as VDR inhibitor 4.9%.
For COc1cc(/C=N/n2c(C)nnc2C)cc(OC)c1OC the results were VDR inhibitor 5.9%.
Screening COc1cccc(OC)c1C(=O)Nc1cccc(NC(=O)c2cccs2)c1 returned VDR inhibitor inconclusive.
Screening O=C(C1CCCCC1C(=O)N1CCCCC1)N1CCCCC1 (configuration not stated) returned VDR inhibitor 8.6%.

In the list so far, these have a cyano group.
`CCCNC(=O)C(Cc1ccc(Cl)cc1)NC(=O)c1ccc(C#N)cc1` (configuration not stated) gave VDR inhibitor 16.4%.
`N#CCCN(/N=C/c1cccnc1)C1=NS(=O)(=O)c2ccccc21` gave VDR inhibitor 5.6%.
Screening Cc1cc(C(=O)Nc2sc3c(c2C#N)CCC(C(C)(C)C)C3)no1 (configuration not stated) returned VDR inhibitor 7.1%.
COc1ccccc1-c1cc(C(=O)Nc2sc3c(c2C#N)CCCC3)no1 was read as VDR inhibitor 79.4µM*.
Screening COc1ccc(C2C(C)C3(O)CC(C#N)(C(=O)N3)C2(C#N)C#N)cc1 (configuration not stated) returned VDR inhibitor -0.2%.

Screens (PubChem BioAssay)
